Screens as filed in PubChem.
FXIIa inh – blocks human coagulation factor XIIa activity | actives 0.2% (n = 33,000) | purified human FXIIa, AMC substrate fluorescence, 2 h | inhibition, % at 10 µM | P00748 | AID 701; in the data active means inhibition above about 30%;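 further: 0% = enzyme with vehicle only and 100% = no enzyme blank; many of its hits are not listed in these tables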
Target sequence (P00748 20-372 limits assumed): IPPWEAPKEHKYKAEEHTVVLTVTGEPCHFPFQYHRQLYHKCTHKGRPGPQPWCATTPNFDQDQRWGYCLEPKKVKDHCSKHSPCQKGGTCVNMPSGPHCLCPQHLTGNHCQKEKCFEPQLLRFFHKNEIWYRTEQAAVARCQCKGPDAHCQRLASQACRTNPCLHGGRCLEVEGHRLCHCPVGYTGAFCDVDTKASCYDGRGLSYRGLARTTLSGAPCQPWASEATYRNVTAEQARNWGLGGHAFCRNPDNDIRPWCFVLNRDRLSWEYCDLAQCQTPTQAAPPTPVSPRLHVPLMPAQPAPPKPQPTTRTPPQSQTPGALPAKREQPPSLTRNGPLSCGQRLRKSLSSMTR
Target sequence (P00748 373-615 limits assumed): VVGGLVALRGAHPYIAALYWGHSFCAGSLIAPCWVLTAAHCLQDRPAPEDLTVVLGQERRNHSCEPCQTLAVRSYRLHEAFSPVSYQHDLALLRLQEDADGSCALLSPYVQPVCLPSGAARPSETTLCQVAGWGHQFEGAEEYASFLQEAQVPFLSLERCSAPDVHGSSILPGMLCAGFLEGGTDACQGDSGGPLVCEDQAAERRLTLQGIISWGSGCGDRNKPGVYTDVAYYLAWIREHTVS
The depositor's hits bear a star.

Preview (four entries):
# | SMILES | FXIIa inh
1 | COCCCn1c(C)nnc1SCC(=O)NCc1ccco1 | 6.3
2 | Cc1cc(NC(=O)CSc2nnc(C3CC3)n2Cc2ccccc2)no1 | -5.2
3 | O=C(CSc1nnc(Cc2ccccc2)n1Cc1ccccc1)NCc1ccco1 | -14.7
4 | CCc1ccc(NCc2cc3c(C)nn(-c4ccccc4)c3[nH]c2=O)cc1 | 1.1

The whole of this part, previewed entries included:
# | SMILES | FXIIa inh
1 | COCCCn1c(C)nnc1SCC(=O)NCc1ccco1 | 6.3
2 | Cc1cc(NC(=O)CSc2nnc(C3CC3)n2Cc2ccccc2)no1 | -5.2
3 | O=C(CSc1nnc(Cc2ccccc2)n1Cc1ccccc1)NCc1ccco1 | -14.7
4 | CCc1ccc(NCc2cc3c(C)nn(-c4ccccc4)c3[nH]c2=O)cc1 | 1.1
5 | COc1ccccc1-n1c(-c2ccc(NS(C)(=O)=O)cc2)n[nH]c1=S | 2.7
6 | CCOC(=O)N1CCN(C(=O)C2CCN(S(=O)(=O)c3c(C)cc(C)cc3C)CC2)CC1 | 1.2
7 | CSc1nc(-c2ccc(Cl)cc2)nn1C(=O)c1ccco1 | 5.7
8 | Cc1ccc2[nH]c(=O)c(C(c3nnnn3Cc3ccccc3)N3CCc4ccccc43)cc2c1 (centres undefined) | 10.2
9 | COc1ccc(C2C(C#N)=C(N)Oc3cc(C)n(Cc4ccco4)c(=O)c32)cc1 (centres undefined) | 5.2
10 | Cc1ccc2cc(C(c3nnnn3Cc3ccccc3)N3CCc4ccccc43)c(=O)[nH]c2c1C (centres undefined) | 6.4
11 | COc1ccc(S(=O)(=O)N(CCCN2CCOCC2)Cc2cccc3ccccc23)cc1 | 14.1
12 | COc1ccc(C(C)=O)c(OC(=O)c2ccco2)c1 | 28.2
13 | Cc1ccc(NC2SC(=O)N(CC(=O)O)C2=O)cc1 (centres undefined) | 8.0
14 | COc1ccc2c(c1)CCc1sc(NC(=O)c3ccc(C)cc3)nc1-2 | 6.8
15 | CCOC(=O)Cc1cc(=O)[nH]c(/N=C(\N)Nc2ccc(C)cc2C)n1 | -2.7

Ordered by length of the SMILES (falling): three of the compounds above
# | SMILES | FXIIa inh
6 | CCOC(=O)N1CCN(C(=O)C2CCN(S(=O)(=O)c3c(C)cc(C)cc3C)CC2)CC1 | 1.2
11 | COc1ccc(S(=O)(=O)N(CCCN2CCOCC2)Cc2cccc3ccccc23)cc1 | 14.1
1 | COCCCn1c(C)nnc1SCC(=O)NCc1ccco1 | 6.3

Some of the compounds tested; most or all hits stand in other tables.
